# Hsc70 = Hsc70 inhibitors, probe displacement, primary screen, biochemical, fluorescence polarization (AID 568); Heat shock cognate 71 kDa protein (Homo sapiens); Hsc70 fluorescence polarization, probe displacement; higher % means a stronger effect; strong numbers were not always called active; displacement, % at 20 µM, or IC50 in µM where a hit was titrated; 83,000 tested, under 10 active;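 active = displacement above 50% without optical interference and an IC50 on retest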;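 also: ATPase domain with a fluorescein-tagged ATP probe; 0% = vehicle and 100% = excess ADP; read after one hour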
# WNV protease inh = inhibitors of WNV NS2B-NS3 protease, primary screen, biochemical, fluorogenic substrate | z-score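 (tested at a level between 10 and 100 µM)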 | Genome polyprotein (West Nile virus), P06935 | 0.18% of 65,000 active | fluorogenic substrate Ex360/Em465; stronger effect = lower value;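 active = z-score at -3 or under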;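 also: score is relative to mean and spread of the compound wells of a plate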
# Target sequence (P06935 1371-1501 limits assumed): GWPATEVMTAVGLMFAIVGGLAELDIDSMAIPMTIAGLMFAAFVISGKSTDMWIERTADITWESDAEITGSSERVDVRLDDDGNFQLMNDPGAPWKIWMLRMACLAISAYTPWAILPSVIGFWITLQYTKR
# Target sequence (P06935 1502-1679 limits assumed): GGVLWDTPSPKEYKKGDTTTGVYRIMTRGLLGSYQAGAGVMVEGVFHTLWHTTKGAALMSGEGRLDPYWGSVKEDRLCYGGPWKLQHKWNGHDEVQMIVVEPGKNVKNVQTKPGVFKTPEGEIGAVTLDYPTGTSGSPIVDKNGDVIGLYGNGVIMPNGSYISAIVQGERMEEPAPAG
# MT1-MMP reporter = inhibitors of MT1-MMP promoter transcription, cell-based, luciferase reporter, luminescence (AID 618) | calls from a first round at 10 µM; hits with a dose series show EC50 in µM | MT1-MMP promoter luciferase reporter cells, luminescence | 0.62% of 87,000 active;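 active = over half of the reporter light lost at 10 µM or EC50 under 50 µM; inactive = the rest and hits that failed the dose series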;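 also: actives suppress MT1-MMP promoter-driven transcription so potencies describe inhibitors; HT1080 fibrosarcoma cells; overnight exposure; toxic or luciferase-blocking compounds were not removed from the actives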
# Starred values were filed as active, the others as inactive; i = inactive; . = no result given.
# Order of results – Hsc70 | WNV protease inh | MT1-MMP reporter
1: COC(=O)CN1C(=O)COc2ccc(Cl)cc21
  0.1% | -0.82 | i
2: CCOC(=O)c1ccc(NC(=O)C(CC)CC)cc1
  5.6% | 0.31 | i
3: COc1ccc(-n2c(Cc3cccn3C)nnc2SCC(=O)NC2CCCC2)cc1
  5.0% | -0.4 | i
4: O=C(c1ccc(NS(=O)(=O)c2cccc3cccnc23)cc1)N1CCOCC1
  0.6% | -1.5 | i
5: CCn1c(SCC(=O)Nc2ccc(NC(=O)c3ccco3)cc2)nnc1-c1cccs1
  -0.5% | . | i
6: CCOC(=O)c1ccc(NC(=O)Nc2c(C)nn(C)c2C)cc1
  6.1% | 1.6 | i
7: COc1ccccc1NC(=S)NCCc1ccccc1
  6.6% | . | i
8: COc1c(C)cccc1C(=O)Nc1cc(-c2nn3c(C)nnc3s2)ccc1C
  0.7% | 0.18 | i
9: CCN1CCN(C(=O)Cn2ncc3ccsc3c2=O)CC1
  -0.9% | 0.56 | i
10: Cc1ccccc1OCCN1C(=O)NC2(CCCc3ccccc32)C1=O (stereo unspecified)
  -0.2% | . | i
11: CCSc1nnc(NC(=O)C2CCCN(S(=O)(=O)c3cnc[nH]3)C2)s1 (stereo unspecified)
  -6.0% | -0.79 | i
12: OC1CCN(C(c2ccc3ncccc3c2)c2nnnn2C2CCCCC2)CC1 (stereo unspecified)
  -3.9% | -0.01 | i
13: O=C(CCCN1C(=O)c2ccccc2C1=O)Nc1c2c(nc3c1CCC3)CCC2
  2.6% | 0.29 | i
14: CN(C)C=NC(=O)/C(C#N)=C1\CCc2ccccc2N1
  -4.7% | -0.44 | i
15: COc1ccc(NC(=O)COc2nc(N(C)C)nc(N(C)C)n2)cc1
  -0.3% | -0.44 | i
16: COCCSc1ccccc1C(=O)NCC1CCCO1 (stereo unspecified)
  0.9% | 0.14 | i
17: Cc1ccc2nc(Nc3nc(CSc4nnnn4-c4ccccc4)cc(=O)[nH]3)nc(C)c2c1
  -4.8% | . | i
18: CCC(C(=O)Nc1ccccc1C(=O)N1CCCC1)N1C(=O)c2ccccc2C1=O (stereo unspecified)
  1.0% | -0.69 | i
19: CCN(CC)C(=O)COc1ccc2oc(C)c(C(=O)OC(C)C)c2c1
  2.4% | 0.34 | i
20: O=C(O)Cn1cnc2scc(-c3cccs3)c2c1=O
  2.9% | -0.52 | i

# Brought forward from above: three entries; new compounds follow.
# Order of results – Hsc70 | WNV protease inh | MT1-MMP reporter
18: CCC(C(=O)Nc1ccccc1C(=O)N1CCCC1)N1C(=O)c2ccccc2C1=O (stereo unspecified)
  1.0% | -0.69 | i
19: CCN(CC)C(=O)COc1ccc2oc(C)c(C(=O)OC(C)C)c2c1
  2.4% | 0.34 | i
20: O=C(O)Cn1cnc2scc(-c3cccs3)c2c1=O
  2.9% | -0.52 | i
21: Cc1ccc(OCC(=O)N2CCN(C(=O)CCC3CCCC3)CC2)cc1
  3.1% | -0.05 | i
22: CCN(CC)S(=O)(=O)c1ccc(C(=O)Nc2nnc(C(C)C)s2)cc1
  1.0% | -1.1 | i
23: Cc1ccccc1-c1nc(-c2ccc(NC(=O)c3ccc4c(c3)OCO4)cc2)no1
  -5.2% | . | i
24: CNCCOc1ccccc1-c1ccccc1
  -2.3% | . | i
25: Cc1ccc(CNC(=O)C2CCCN(c3nc4ccccc4o3)C2)cc1 (stereo unspecified)
  0.0% | -0.34 | i
26: COc1ccc(/C(O)=C2\C(=O)C(=O)N(c3cc(C)on3)C2c2cccc(OC)c2OC)cc1C (stereo unspecified)
  5.1% | -0.37 | i
27: CC1CCCCN1C(=O)COC(=O)c1n[nH]c2ccccc12 (stereo unspecified)
  -0.7% | . | i
28: COc1ccc2nc(-n3c(C)ccc3C)sc2c1
  2.1% | -0.53 | i
29: CCOc1ccc(NC(=O)N(C2CCCCC2)C(C)c2ccncc2)cc1 (stereo unspecified)
  -3.6% | -0.23 | i
30: COc1ccc(N2CCN(CC(=O)Nc3ccc(-n4cnnn4)cc3)CC2)cc1
  5.7% | -0.69 | i
31: Cc1c(/C=N/n2cnnc2)c2ccccc2n1CCOc1ccc(Cl)cc1
  -2.4% | -1.9 | i
32: Cc1c(/C(Cc2ccccc2)=N/O)c2ccccc2n1C
  3.7% | . | i
33: CC(=O)Oc1ccc(Oc2ccc(-c3noc(C)n3)cc2)cc1
  4.1% | 1.5 | i
34: O=C(CSc1nc(O)c(Cc2ccccc2)c(=O)n1-c1ccccc1)N1CCOCC1
  2.2% | . | i
35: CC(C)OC(=O)Cn1c(=O)oc2ccccc21
  3.8% | 0.18 | i
36: Cn1c(=O)oc2cc(S(=O)(=O)Nc3cccc(F)c3)ccc21
  1.0% | -0.22 | i
37: CN1C(=S)SC(C)(C)C1(C)NO (stereo unspecified)
  -3.8% | 1.2 | i
38: CC(=O)c1cccc(NC(=O)c2cccc(S(=O)(=O)N(C)C)c2)c1
  -0.9% | -0.13 | i
39: COc1ccc(-c2oc3ncn4nc(COc5ccccc5)nc4c3c2-c2ccc(OC)cc2)cc1
  -1.0% | -0.12 | i
40: CCOC(=O)/C(C#N)=C1\C=CN(C)C(C)=N1
  0.6% | . | i
41: N#CCSc1nnc(Cc2ccc3c(c2)OCO3)o1
  -12% | 0.23 | i
42: Cc1ccc(S(=O)(=O)c2c(N)n(Cc3ccco3)c3nc4ccccc4nc23)cc1
  3.3% | 0.86 | i
43: O=C(NCc1ccccc1)[C@@H]1CSC2c3ccccc3C(=O)N21 (stereo partly specified)
  -6.3% | . | i
44: Cc1ccc(NC(=O)N2CCC(O)(c3cccnc3)CC2)cc1
  2.2% | . | i
45: COc1ccc(C2CC3(CC(C)(C)NC(=O)N3)Oc3cc(O)ccc32)cc1 (stereo unspecified)
  -4.8% | 1.7 | i
46: O=c1oc2c3c4c(cc2cc1-c1nc2ccccc2[nH]1)CCCN4CCC3
  91% | 0.43 | i
47: CC1CC(C)CN(C(=O)CCCn2c(=S)[nH]c3ccccc3c2=O)C1 (stereo unspecified)
  2.2% | -0.11 | i
48: CCOC(=O)Nc1ccc2c(CN3C(=O)NC(CC)(CC)C3=O)cc(=O)oc2c1
  -6.4% | . | i
49: COc1ccc(-n2nc(C(=O)NCC(=O)NCc3ccco3)c3ccccc3c2=O)cc1Cl
  -6.0% | 0.67 | i
50: O=C(CSc1nnc(-c2ccc(OC(F)F)cc2)o1)NCc1cccs1
  0.5% | . | i
51: CC1CN(Cc2nc3c(c(=O)n(C)c(=O)n3C)n2Cc2cccc(Cl)c2)CC(C)O1 (stereo unspecified)
  -3.2% | -1.1 | i
52: CCOc1cc(C(=O)Nc2ncccn2)cc(OCC)c1OCC
  -2.9% | -0.66 | i
53: Cc1ccc(NC2SC(=O)N(Cc3cccc(C(=O)O)c3)C2=O)cc1 (stereo unspecified)
  2.8% | -0.0095 | i
54: COC(=O)c1ccc(NC(=O)CSc2nnc(COc3ccc4c(c3)CCCC4)o2)cc1
  -3.7% | 0.46 | i
55: CCCC1C2C(=O)N(c3ccccc3)C(=O)C2ON1c1ccccc1 (stereo unspecified)
  -1.4% | . | i
56: CCCn1cc(S(=O)(=O)CC(=O)NC2CCCCC2)c2ccccc21
  9.8% | . | i
57: Cc1cc(C)n2nc(C(=O)OCCOc3ccc(F)cc3)nc2n1
  -1.9% | 0.12 | i
58: Cc1ccc2c(c1)-c1c(ssc1=S)C(C)(C)N2C(=O)c1ccco1
  4.9% | . | i
59: Oc1c(Br)cc(C2N=C(c3ccccc3)NO2)cc1Br (stereo unspecified)
  -1.1% | . | i
60: COC(=O)c1ccccc1NC(=O)C1CCCN(S(=O)(=O)c2ccccc2)C1 (stereo unspecified)
  0.5% | -1.1 | i

# Additional entries:
nr	structure	Hsc70	WNV protease inh	MT1-MMP reporter
61	CCS(=O)(=O)c1ccc2oc(Nc3cc(C)cc(C)c3)nc2c1	5.3%	.	i
62	Cc1ccc(S(=O)(=O)N(C)CC(O)Cn2c3ccccc3c3ccccc32)cc1 (stereo unspecified)	3.2%	.	i
63	CCN1CCN(C(=O)C2CCN(Cc3nc(-c4cccc(Cl)c4)oc3C)CC2)CC1	2.8%	-0.91	i
64	O=C(CSc1nnc(NC2CCCCC2)s1)Nc1ccc(N2CCOCC2)cc1	-3.1%	.	i
65	Cc1ccc(NC(=O)CSc2nc(-c3ccco3)cc(C(F)(F)F)n2)cc1C	-6.8%	.	i
66	Cc1cccc(Nc2ncc3c(n2)CC(C)CC3=O)c1 (stereo unspecified)	-3.2%	-1.1	i
67	O=C(C1CCC1)N1CCc2cc(S(=O)(=O)NCCN3CCN(c4ccccc4F)CC3)ccc21	2.2%	1.6	i
68	Cc1cc(C(F)F)n2nc(C(=O)Nc3ccccc3Br)nc2n1	-1.6%	-1.6	i
69	CC(=O)Nc1ccc(S(=O)(=O)N2CCN(C(C)CCc3ccccc3)CC2)cc1 (stereo unspecified)	-7.1%	0.89	i
70	CCOc1ccccc1/C=c1\sc2ncnn2c1=O	0.1%	-0.14	i
71	COc1ccc(N=c2oc3c(OC)cccc3cc2C(=O)NCc2ccco2)c(OC)c1	16%	0.71	i
72	COc1ccccc1N1CCN(C(=O)N2CCOCC2)CC1	-0.3%	-0.42	i
73	Cc1nc2ncnn2c(N2CCN(C(=O)c3cccc(F)c3)CC2)c1Cc1ccccc1	-2.0%	0.12	i
74	CCn1c(SCC(=O)Nc2ccc(S(N)(=O)=O)cc2)nnc1-c1cccc(OC)c1	-8.7%	-0.02	i
75	COC(=O)CSc1ncccc1-c1nc2ccccc2[nH]1	-0.4%	0.43	i
76	CC/C(=N/Nc1ccccc1)c1cnnc(-c2ccccc2)n1	-1.2%	.	i
77	O=C(NCCOc1ccccc1)C1CCCN1C(=O)c1cccs1 (stereo unspecified)	4.4%	1.7	i
78	CCOc1ccc2[nH]c(=O)c(CN(Cc3ccc(F)cc3)C(=O)c3ccco3)cc2c1	1.4%	0.2	i
79	COc1ccc(C2NC3=C(CCCC3)C(C#N)(C#N)C2(C#N)C#N)cc1 (stereo unspecified)	-30%	-0.51	i
80	CCOC(=O)N1CCN(C(=O)c2cn(CC)c3cc(N4CCN(C)CC4)c(F)cc3c2=O)CC1	1.5%	0.46	i
81	c1ccc2c(c1)nc1n2CCN1	-1.6%	.	i
82	O=C(CCn1nnc2ccccc21)Nc1nnc(COc2ccccc2F)s1	2.7%	.	i
83	O=c1[nH]ncc(NCCCO)c1Cl	-4.7%	.	i
84	Cc1ccc(Nc2cc(C)nc(N3CCOCC3)n2)cc1	-1.2%	.	i
85	CCCCN(C)C(=O)c1ccc2c(c1)N(CC)C(=O)c1ccccc1S2(=O)=O	-4.1%	0.56	i
86	COc1ccc(S(=O)(=O)N(C)CC(=O)NCc2ccco2)cc1	3.1%	.	i
87	COc1ccccc1CNC(=O)COC(=O)c1n[nH]c2ccccc12	3.4%	.	i
88	CCCc1cc(N2CCN(c3ccccn3)CC2)n2nc(C)c(-c3ccccc3)c2n1	-2.6%	-0.51	i
89	CCCCc1nc(N2CCOCC2)c(C#N)c2c1COC(C)(C)C2	1.8%	0.18	i
90	Cc1sc(NC(=O)c2cccs2)c(C(=O)OC(C)C)c1C	4.3%	.	i
91	CCCCn1cnc2c([nH]c3cc(OC)ccc32)c1=O	1.3%	.	i
92	Cc1cc(C)nc(SCc2nnc(SCC#N)n2-c2cccc(Cl)c2)n1	6.1%	0.13	i
93	CCOC(=O)Cn1c(CN(Cc2ccccc2)Cc2ccccc2)nc2c1c(=O)[nH]c(=O)n2C	1.8%	1.4	i
94	COc1ccc(N2C(=O)C(Cl)=C(NCc3ccccc3)C2=O)cc1	-4.3%	.	i
95	CCc1ccccc1N(CC(=O)N1CCN(c2ccc(F)cc2)CC1)S(C)(=O)=O	-0.7%	-1.6	i
96	O=C(Nc1ccccc1C(=O)O)c1cccc(F)c1	-2.6%	.	i
97	Cc1nn(-c2cccc(C(F)(F)F)c2)c(Cl)c1/C=N/n1cnnc1	0.9%	-0.03	i
98	Cc1ccccc1Cn1cc(S(=O)(=O)CC(=O)Nc2nccs2)c2ccccc21	-2.8%	.	i
99	Cn1c(=O)[nH]c(=O)c2c1nc(SCC(=O)O)n2CCc1ccccc1	-0.2%	0.54	i
100	O=C1CN(C(=O)COC(=O)CCC(=O)c2ccc3c(c2)OCCO3)c2ccccc2N1	2.7%	1.2	i
101	O=C(Nc1ccc(N2CCOCC2)c(Cl)c1)c1ccc(F)cc1	-0.6%	.	i
102	CC(CNCC1CCCO1)COc1ccccc1 (stereo unspecified)	-1.3%	.	i
103	C1=C(c2ccccc2)CCN(c2nc3ccccc3n3cnnc23)C1	-5.7%	-0.81	i
104	CCOC(=O)c1nnn(-c2ccccc2C#N)c1C	4.6%	0.35	i
105	Cc1ccccc1Cn1c(CN2CCN(c3ccc(F)cc3)CC2)nc2c1c(=O)n(C)c(=O)n2C	-0.3%	0.62	i
106	O=C1CCC(=O)N1OCCCOc1ccc2c(c1)CCC2	-3.9%	-0.88	i
107	CCCCn1c(SCc2c(C)noc2C)nc2cc(S(N)(=O)=O)ccc21	5.5%	-0.58	i
108	COc1ccccc1N(C(C)=O)C1SC(=O)N(c2ccccc2)C1=O (stereo unspecified)	-2.9%	-0.82	i

# Entries of single compounds, looked up by structure:
# Cc1ccccc1Cn1c(CN2CCN(c3ccc(F)cc3)CC2)nc2c1c(=O)n(C)c(=O)n2C across the screens: Hsc70: -0.3%; WNV protease inh: 0.62; MT1-MMP reporter: i
# CCCCn1cnc2c([nH]c3cc(OC)ccc32)c1=O across the screens: Hsc70: 1.3%; WNV protease inh: .; MT1-MMP reporter: i

# An excerpt; count on the stated rates, not on these rows.
